Biofilm kill mix – mixture kills Candida albicans biofilm cells; C. albicans biofilm persisters + clotrimazole, fluorescence viability; primary screen in compound mixtures of four per well; inhibition, % at 7.6 µM; hit rate 0.02% among 120,000;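 active = inhibition above 30.3% in the primary screen of four-compound pools, then above 30% when the compound was retested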;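 note: compounds exposed to preformed 24 h biofilms for 48 h; the number belongs to the whole pool; some results filed as inactive read as strong as hits; inactives centre near 12; 0% = biofilm with clotrimazole alone and 100% = kill control; retested singly at about 60 µM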
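Probe or stimulus – Clotrimazole 50 µg/mL co-treatment · System – C. albicans biofilms · Schedule – 24 h biofilm formation, then 48 h compound exposure, 37 °C · Evaluation – percent inhibition of biofilm viability · Technique – 2-h Alamar Blue fluorescence, 535/590 nm excitation/emission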
The depositor's hits bear a star; & = joins results of further samples.

SMILES	Biofilm kill mix
O=C(CN1C(=O)c2ccccc2C1=O)Nc1cc([N+](=O)[O-])ccc1O	19
CCOc1ccccc1CNCCNCC(C)O (centres undefined)	6
CC(=O)OCC(=O)[C@@]1(O)CC[C@H]2[C@@H]3CCC4=CC(=O)C=C[C@]4(C)[C@@]3(Cl)[C@@H](Cl)C[C@@]21C	14
O=C(CCCCCNc1nc(=S)[nH]c2ccccc12)NCCc1c[nH]c2ccccc12	13
COc1ccc(OC)c(Cc2nnc(CCC(=O)NC(C3CC3)C3CC3)o2)c1	18
C/C(Cn1cnc([N+](=O)[O-])n1)=N/NC(=O)COc1c(Cl)cc(Cl)cc1Cl	16
COc1cc(NC(=S)NCCc2c[nH]c3ccccc23)c(OC)cc1Cl	26
Cc1cc(SCC(=O)Nc2cccc(S(N)(=O)=O)c2)c(C)cc1Br	15
CCCC(C(=O)O)N1C(=O)/C(=C/c2cccn2C)SC1=S (centres undefined)	22
COc1ccc(OC)c(NC(=O)C(=S)NC2CCCCC2)c1	15
COc1ccc(NC(=O)c2c[nH]n3c(=O)cc(C4CCN(C(=O)OC(C)(C)C)CC4)nc23)cc1Cl	14
COc1ccc(-n2c(C)cc(/C=N/Nc3nnc(C)n3N)c2C)cc1	13
O=C(NCCCN1CCN(CCCNC(=O)c2cc([N+](=O)[O-])ccc2Cl)CC1)c1cc([N+](=O)[O-])ccc1Cl	7
NC(=S)N/N=C/c1cn(CCC(=O)O)nc1-c1cccc(Br)c1	12
CCOC(=O)N1CCN(Cc2cc(Cl)c3cccnc3c2O)CC1	5
C#CCOCCOCCOCCNc1nc(N2CCN(C(=O)[C@H](CCCCN)n3cc([C@@H](N)C(C)CC)nn3)CC2)nc(N2CCN(C(=O)[C@H](CCCCN)n3cc([C@@H](N)CC(C)C)nn3)CC2)n1 (some centres undefined)	18
Nc1ncnc(Nc2c(F)cccc2F)n1	22
CCN(CC)C(=N)/C(C#N)=N/Nc1ccc(C)cc1	17
CC(C(=O)Nc1ccccc1-c1ccccc1)N(C)Cc1nc2ccccc2c(=O)[nH]1 (centres undefined)	-6
O=c1cc(CCl)nc2scc(-c3ccccc3)n12	19
C=Cn1cc[n+](CC(=O)C(C)(C)C)c1	15
CC[C@H]1CN2CCc3cc(OC)c(OC)cc3[C@@H]2C[C@@H]1C[C@H]1NCCc2cc(OC)c(OC)cc21	19
O=C(COC(=O)c1ccc2c(c1)OCCO2)Nc1cc(S(=O)(=O)N2CCOCC2)ccc1Cl	11
C=CCn1nc([N+](=O)[O-])nc1Sc1cccc2cccnc12	1
c1ccc(-c2c[n+]3c(n2-c2ccccc2)CCC3)cc1	11
O=C(COc1ccccc1)NCC(=O)N/N=C/C=C/c1ccccc1	18
CC(c1n[nH]c(=S)n1Cc1ccccc1)N(C)C (centres undefined)	8
CCOC(=O)N1CCN(c2ccccc2OC)CC1	20
O=C(CCc1nnc(C2CCCCC2)o1)N1CCCCC1CCn1cccn1 (centres undefined)	13
CCc1nnc(NS(=O)(=O)c2ccc(NC(=S)NC(=O)/C=C/c3ccc(OC)cc3)cc2)s1	12
Cc1ccc(O)c(C2=Nc3ccccc3N=C(c3cccs3)C2)c1	10
O=C(NC1CCCc2ccccc21)c1cccc(S(=O)(=O)N2CCOCC2)c1 (centres undefined)	0
COc1ccc(/C=C2\N=C(c3ccccc3)N(c3ccc(C(=O)O)cc3)C2=O)cc1OC	27
O=C(Nc1ccc(Oc2ccccc2)cc1)C1CC1	-4
C=C(C)COc1ccc(-c2nc(N)nc(C)c2-c2ccc(OC)cc2)c(O)c1	6
CC(C)Cn1c(-c2ccc(Br)cc2)c[nH]c1=S	19
CC(C)CC(=O)Nc1cccc(NC(=O)CC(C)C)n1	-5
COc1cccc(OCC(=O)Nc2cc(Cl)ccc2Oc2ccccc2)c1	12
COc1ccc2c(c1)C=C(CN1CCN(C3CCCC3)C(CCO)C1)CO2 (centres undefined)	10
CC1=CC(C)C2(COC(c3ccc[n+](C)c3)OC2)C(C)C1 (centres undefined)	18
CC(=O)c1cccc(NC(=O)COc2ccccc2C(=O)c2cc(C#N)c(=O)n(C3CCCCC3)c2)c1	-4
CC1(C)O[C@@H]2C[C@H]3[C@@H]4C[C@H](F)C5=CC(=O)CC[C@]5(C)[C@H]4[C@@H](O)C[C@]3(C)[C@]2(C(=O)CO)O1	12
CCc1ccc(N2C(=O)Nc3ccccc3C2(O)C(=O)N2CCN(c3ccccn3)CC2)cc1 (centres undefined)	10
COc1ccc2nc(C)cc(SCC(NC(C)=O)C(=O)OC(C)C)c2c1 (centres undefined)	21
COc1ccc(CCN2C(=O)NC(NC(C)=O)(C(F)(F)F)C2=O)cc1OC (centres undefined)	12
COc1ccc(C2NC(=O)C(C#N)=C(S)N2c2cccc(C)c2)cc1OC (centres undefined)	17
Cc1cccc(S(=O)(=O)c2c(C)cc(C)nc2Cl)c1	5
Oc1c(C=C2N=c3ccccc3=N2)sc(=S)n1C1CCCC1	1
CC(C)CNC(=S)NC(=O)c1ccc(F)cc1	3
CCNC(=S)NNC(=O)c1csc(C)c1	8
O=C(Cc1ccc(Cl)cc1)Nc1ccc(C(=O)N2CCOCC2)cc1	16
CC(C)(C)OC(=O)N1CCN(C(=O)c2cccnc2Cl)CC1	14
COc1ccccc1CNC(=O)CSc1ccc(C)cc1	16
Cc1ccc(Cn2ncc3c(N4CCN(C5CCCC5)CC4)ncnc32)cc1	13
Cc1nc(Oc2ccccc2)c2ccccc2n1	-13
O=C(CSc1ccc2ccccc2c1)NCCCN1CCCC1=O	10
Cc1ccc(C)c(-n2cc[nH]c2=S)c1	13
O=C(NCCC1=CCCCC1)C1CCN(C(=O)Cc2ccccc2)CC1	5
O=C(NCc1ccc(F)cc1)C1CCC(CNc2c(N3CCCCC3)c(=O)c2=O)CC1 (centres undefined)	27
O=C(CSc1ncnc2c1nnn2Cc1ccc(F)cc1)NC1CCCCC1	-13
Following part.
SMILES	Biofilm kill mix
COc1cc(CNCc2ccccn2)ccc1OCc1ccc(Cl)c(Cl)c1	9
COC(=O)Nc1nc2ccc(-c3n[nH]c(=O)c4ccccc34)cc2[nH]1	10
CC(=O)NCC(=O)N1CCCC(C(=O)c2ccc(-c3ccccc3)c(F)c2)C1 (centres undefined)	7
CCN(CC)CC(=O)Nc1c(C)cccc1C	6&4
COc1ccc(CNC(=O)COC(=O)CC2CCCC2)cc1	4
COc1ccc(/C=N/NC(=O)c2c(-c3ccccc3)noc2C)cc1	6
COc1ccc(NC(=O)c2nc[nH]c2C(=O)N[C@@H](CC(C)C)C(=O)OC(C)(C)C)cc1	6
COc1ccccc1C(=O)NCC(=O)NNc1ncnc(N)c1[N+](=O)[O-]	14
O=C(Nc1ccc(F)cc1F)Nc1ccccc1C(=O)NCCN1CCNC1=O	15
CCCn1c(NCc2ccccn2)nc2ccccc21	14
O=C(Nc1ccc(Cl)c(Cl)c1)Nc1nnc(CSc2ccccc2)s1	14
Cc1ccc2c(c1)N(C(=O)CCC(=O)O)CCO2	19
COc1ccccc1Nc1nc2nonc2nc1N1CCC(C)CC1	4
Cc1ccc(C(=O)Nc2nc(-c3ccccn3)cs2)o1	17
Oc1c(Cl)cc(Cl)cc1Sc1cc(Cl)cc(Cl)c1O	30
COc1ccccc1NS(=O)(=O)c1cc(NC(=O)CC(C)(C)C)ccc1N1CCOCC1	-1
Cc1ccc(-n2c(SCC(=O)N/N=C/c3ccc(C)s3)nnc2-c2ccccc2)cc1	13
CCOc1ccc(CCNC(=O)c2ccc3nc(N4CCOCC4)sc3c2)cc1OCC	24
COc1ccc(C2=NN(C(=O)c3cccs3)C(c3ccc(OC)cc3)C2)cc1 (centres undefined)	13
CC12CN3CC(C)(CN(C1)C3c1ccc([N+](=O)[O-])o1)C2=O (centres undefined)	16
COC(=O)c1[nH]c2ccccc2c1NC(=O)C(C)N1CC(C)OC(C)C1 (centres undefined)	17
COc1ccc(Oc2ccc(C(F)(F)F)cc2NC(=O)c2ccc(OC)cc2)cc1	27
COc1ccc(OC)c(/C=N/NC(=O)c2cc[n+](Cc3ccccc3)cc2)c1	13
CSc1ccc(Cl)c(C(=O)Nc2ccc(C)cn2)c1	2
CCOC(=O)c1cnc2c(C)cccc2c1Nc1ccc(N2CCOCC2)cc1	11
COC(c1ccccc1)c1nnc(CCC(=O)NC2C3CC4CC(C3)CC2C4)o1 (centres undefined)	4
O=C(O)C1CC=CCC1C(=O)NNc1c(Cl)cc(Cl)cc1Cl (centres undefined)	6
CCCC(C)NC(=O)c1cccc(Oc2ccccc2)c1 (centres undefined)	13
O=C1CN=CN=CN1c1ccc(Cl)cc1Cl	23
Cc1ccnc(SCCn2c(N3CC(C)OC(C)C3)nc3c2c(=O)n(C)c(=O)n3C)n1 (centres undefined)	10
COc1ccc(CN2CCNC(=O)C2CC(=O)NCCc2nc(C)c(C)s2)c(OC)c1 (centres undefined)	29
COc1ccccc1-c1nnc(SCC(=O)NCc2cccs2)n1N	8
CCOC(=O)C1=NNC2(CC(=O)N(c3cccc(C)c3)C2=O)C1 (centres undefined)	25
Cc1ccc(NC(=O)COC(=O)[C@@H]2CCCN2C(=O)c2cccs2)cc1S(=O)(=O)N(C)C	4
CCCc1cc(=O)[nH]c(SCC(=O)N2CCN(S(=O)(=O)c3ccc4ccccc4c3)CC2)n1	6
CCOC(=O)C1CCN(C(=O)c2cccnc2Oc2ccc(Cl)cc2)CC1	2
O=C1NC(=Nc2cccc(O)c2)S/C1=C\c1cccnc1	14
CC(CCc1ccco1)NC(=O)c1cccc2c1C(=O)N(C1CCCCC1)C2 (centres undefined)	-3
CN(Cc1nc(CC2CC2)no1)CC12CC3CC(CC(C3)C1)C2	4
O=C(COc1ccc(Cl)cc1Cl)Nc1cccnc1	19
CCN(CC)C(=O)Oc1cc(COC)nc(-c2ccccc2)n1	7
Cc1cc2c(OCC(O)CNC3CCCCC3)cccc2[nH]1 (centres undefined)	15
Cc1cccc(Oc2ncnc(N)c2[N+](=O)[O-])c1	19
N#CCCn1cc(C=C(C#N)C#N)c(-c2ccc(Cl)cc2)n1	3
CC(C)Cn1c(=O)n(C)c(=O)c2[nH]cnc21	26
COCCNC(=O)c1ccc(C2SCC(=O)N2Cc2ccco2)cc1 (centres undefined)	8
CCNc1nc(C)c(CN(C(C)=O)c2ccccc2)nc1C#N	16
Fc1ccccc1NC(=S)NCc1ccc2c(c1)OCO2	9
Cc1nn(C)c(=S)n1-c1ccc(Cl)cc1	8
CC(=O)C1=C(O)C(=O)N(c2ccc(C)cc2)C1c1ccccn1 (centres undefined)	-6
CC(C)(C)C(=O)NC(=S)NNC(=O)c1sc2ccccc2c1Cl	20
CCCC(=O)Nc1ccccc1-c1nnc(SCC)[nH]c1=O	22
CC(C)(CO)NCC(O)Cn1cc(C=O)c2ccccc21 (centres undefined)	28
C=C1C(C(=O)Nc2ccc(OC)cc2)C1C(=O)Nc1ccc(OC)cc1 (centres undefined)	16
CCC(CO)NCc1cc(OC)c(OCC(=O)NCCc2ccccc2)cc1Br (centres undefined)	10
CC/C(=N/Nc1ccccc1C)c1cnnc(SC)n1	7
Cc1ccc(S(=O)(=O)N(C)C)cc1NC(=O)c1sccc1Cl	29
Cc1ccc(C(O)P(=O)(OCc2ccccc2)c2ccc(N(C)C)cc2)cc1 (centres undefined)	22
CCOC(=O)N1CCN(C(=O)Nc2ccc(NC(=O)N3CCN(C(=O)OCC)CC3)cc2)CC1	10
CCCC[C@@H]1CNC(=S)N1CCC12CC3CC(CC(C3)C1)C2	17
CC(C)=CC(=O)Nc1nnc(C)s1	4
Cc1c(C(=O)OCC(=O)NCCN2C(=O)CSC2=O)oc2c1ccc1ccccc12	6
CCn1c(C)cc(/C=C2/NC(=O)N(CC(=O)Nc3cccc(C)c3)C2=O)c1C	20

Source: PubChem BioAssay

Only part of the results is shown, so the mix of outcomes need not match the whole.
